Assay outcomes: PubChem, National Center for Advancing Translational Sciences (NCATS)
VDR inh = Inhibitors of the vitamin D receptor (VDR): qHTS; VDR-SRC2-3 peptide fluorescence polarization, 2 h; Potency, µM, inactives show max response, negative = inhibition, most hits filed as inhibitors; hit rate 0.93% among 400,000; active = well fitted inhibition curve with a large enough effect; inconclusive = small, poorly fitted or top-dose-only effect, or another doubt; inactive = no such curve, though single readings can be large or run the other way; also: series mostly up to about 120 µM
Target sequence (P11473 whole entry, looked up): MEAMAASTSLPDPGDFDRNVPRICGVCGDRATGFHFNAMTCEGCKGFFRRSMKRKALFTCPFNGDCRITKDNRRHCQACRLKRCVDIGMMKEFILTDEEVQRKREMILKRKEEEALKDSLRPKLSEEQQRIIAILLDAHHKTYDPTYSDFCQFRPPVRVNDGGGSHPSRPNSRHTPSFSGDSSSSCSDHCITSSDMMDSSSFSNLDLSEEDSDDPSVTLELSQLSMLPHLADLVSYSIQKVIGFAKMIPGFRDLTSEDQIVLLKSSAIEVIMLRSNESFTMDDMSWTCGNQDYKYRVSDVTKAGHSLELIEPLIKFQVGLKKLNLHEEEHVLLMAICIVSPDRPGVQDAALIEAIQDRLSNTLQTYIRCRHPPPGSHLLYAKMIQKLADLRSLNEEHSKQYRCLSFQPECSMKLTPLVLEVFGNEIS
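The screen uses fluorescence polarization to detect compounds that interfere with recruitment of the SRC2-3 coactivator peptide to VDR; plates are read after 2 h at room temperature.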
An asterisk follows results filed as active; u = inconclusive; & = joins results of further samples. % is scaled to controls: 0 for no effect and ±100 for the full control effect; potency is read from the fitted curve at half-maximal effect. Not all compounds are listed. The share of hits here may be higher or lower than overall.

No.	canonical_smiles	VDR inh
1	CSc1ncccc1C(=O)OCC(=O)NC1CCCC1	9%
2	Cc1nc2cc(NS(=O)(=O)c3ccccc3F)ccc2s1	-1%
3	O=C(c1ccncc1)c1ccc(N2CCN(C3CC(=O)N(Cc4ccccc4)C3=O)CC2)cc1 (stereo not drawn)	-10%
4	FC(F)(F)c1nnc2sc(-c3cccs3)nn12	7%
5	CCn1nc(NC(=O)c2ccncc2)c2cc3cc(C)ccc3nc21	-18%
6	O=C(CCCCn1c(=O)c2ccccc2n(CC(=O)Nc2ccccc2)c1=O)NCc1ccco1	0%
7	O=C(COc1ccc(F)cc1F)NNC(=O)Nc1cccc([N+](=O)[O-])c1	-19%
8	CCCN(Cc1nc2cc(Cl)ccc2c(=O)[nH]1)C(=O)c1ccc(S(=O)(=O)N2CCCC2)cc1	-10%
9	Cn1c(=O)c2ccccc2n(Cc2cccc(F)c2)c1=O	4%
10	COc1ccccc1-c1c(C(F)(F)F)oc2c(CN3CCCCC3C)c(O)ccc2c1=O (stereo not drawn)	4%
11	Cc1cc(S(=O)(=O)N2CCOCC2)ccc1OCC(=O)N1CCCCC1	-5%
12	O=C(NC(=S)Nc1ccc(N2CCOCC2)cc1)c1cccs1	4%
13	Cc1cc(C(=O)NCc2ccccc2Cl)c2c(C)nn(-c3cccc(F)c3)c2n1	-1%
14	CN(Cc1cccc(Cl)c1)C(=O)C1CCC(=O)N(C2CC2)C1 (stereo not drawn)	8%
15	COc1ccc(C2CC(=O)N3CN(C4CCCCC4)CSC3=C2C#N)c(OC)c1 (stereo not drawn)	u
16	CCc1sc(NC(C)=O)nc1-c1ccccc1	-2%
17	Cc1c(Cl)cccc1NC(=O)Nc1ccc(C(=O)N2CCCC2)cc1	5%
18	CCCCn1nnc(NC(=O)c2ccc([N+](=O)[O-])cc2Cl)n1	-7%
19	O=C(CSc1ccc([N+](=O)[O-])cn1)Nc1ccc2c(c1)OCCO2	8%
20	O=C(OCc1ccccc1)/C(=C/c1ccc(Cl)cc1)NC(=O)c1ccccc1Cl	5%
21	COC(=O)c1ccc(S(=O)(=O)NCc2ccc(S(N)(=O)=O)cc2)o1	9%
22	CCC(=O)N1CCc2cc(Br)cc(S(=O)(=O)CCC(=O)Nc3cccc(CC)c3)c21	-2%
23	O=c1cc(Cn2ccnc2)c2cc(O)ccc2o1	-5%
24	COCCNC(=O)Cn1nc(-c2ccc(C)cc2)ccc1=O	-28%
25	Cc1oc(-c2ccc(Cl)cc2)nc1CS(=O)CC(=O)NCc1cccs1 (stereo not drawn)	-20%
26	O=C1OCC(c2ccccc2)=C1c1ccccc1	1%
27	Cc1cc(=O)[nH]c(SCC(=O)Nc2nc(-c3ccccc3)c(-c3ccccc3)o2)n1	15%
28	COC(=O)C1(C)CCc2cc(OC)ccc2C1=O (stereo not drawn)	3%
29	CCc1ccc(-c2cc3c(=O)n(CC(=O)NCCCN4CCC(Cc5ccccc5)CC4)nc(C)n3n2)cc1	-16%
30	Cn1c(N2CCN(S(=O)(=O)c3ccc(Cl)cc3)CC2)nc2ccccc21	-14%
31	CC(C)(C)C(=O)Nc1ccc2nc(SCC(=O)N3CCOCC3)sc2c1	10%
32	O=C(C[C@@H]1C/C=C\C[C@H](NC(=O)OCC2c3ccccc3-c3ccccc32)C(=O)OC[C@H]2CCCN2C1=O)N[C@@H](CO)Cc1ccccc1	-3%
33	O=C(NCCC(c1ccccc1)c1ccccc1)c1cnccn1	u
34	O=C(NC(=O)c1ccccc1)Nc1ccc(-c2cnco2)cc1	-8%
35	COCCNC(=O)CCCn1c(=O)c2cc(OC)c(OC)cc2n(CC(=O)NCCC2=CCCCC2)c1=O	-14%
36	O=C(NCCc1c[nH]c2ccccc12)C1Cc2ccccc2CN1C(=O)c1ccco1 (stereo not drawn)	5%
37	CCC(C)(C)NC(=O)CN(C(=O)CNS(=O)(=O)c1ccc(C)cc1)c1ccc2c(c1)OCCO2	1%
38	Clc1cccc(N2CCN(c3c4c(nc5nncn35)CCC4)CC2)c1	21%
39	COC(=O)CCCNC(=O)c1ccc2[nH]c(C)c(C)c2c1	-6%
40	N#C/C(=C\c1cn(CC(=O)N2CCCCC2)c2ccccc12)C(=O)NCc1ccc2c(c1)OCO2	-4%

Arranged by the number under VDR inh (smallest number first): some entries from above.
| item | Compound | VDR inh |
| --- | --- | --- |
| 39 | COC(=O)CCCNC(=O)c1ccc2[nH]c(C)c(C)c2c1 | -6% |
| 40 | N#C/C(=C\c1cn(CC(=O)N2CCCCC2)c2ccccc12)C(=O)NCc1ccc2c(c1)OCO2 | -4% |
| 38 | Clc1cccc(N2CCN(c3c4c(nc5nncn35)CCC4)CC2)c1 | 21% |

(cont.)
No.	canonical_smiles	VDR inh
41	O=C(Nc1ccc(NC(=O)c2ccc(Cl)cc2Cl)cc1)c1ccc2c(c1)OCO2	8%
42	Oc1ccc(N=Cc2ccc(OCc3ccccc3)cc2)cc1	u
43	Cc1cc(/C=C(/C#N)C(=O)O)c(C)n1-c1cccc2ccccc12	-2%
44	COc1cc(Cc2nccc3cc(OC)c(OC)cc23)c(S(=O)(=O)O)cc1OC	-5%
45	Cc1ccc(S(=O)(=O)N2CCN(C(=O)c3cccs3)CC2)cc1C	8%
46	CCn1c(=O)c2cc(C(=O)NCCCN3CCC(C)CC3)sc2c2ccccc21	-7%
47	CCn1c2ccccc2c2nnc(SCC(N)=O)nc21	12%
48	CCCN1CCN(CCCNC(=O)c2ccc(NC(=O)C3=C(C)OCCS3)cc2)CC1	-10%
49	CC(=O)c1ccc(NCCC(=O)c2ccccc2)cc1	17%
50	CCC1CCCCN1CCCNC(=O)C(C)n1nc(C)c2sc3ccccc3c2c1=O (stereo not drawn)	-13%
51	CC(=O)Nc1c(C)cc(OCC(=O)O)cc1C	12%
52	Cc1ccnc(NC(=O)CNC(=O)COc2ccccc2)c1	u
53	CC(C)(C)OC(=O)C[C@H]1C/C=C\C[C@@H](CC(=O)N(CCO)Cc2ccccc2)C(=O)N[C@H](Cc2ccccc2)COC1=O	-19%
54	COc1cc(C(=O)N2CCN(C(=O)c3cc(-c4ccccc4)n[nH]3)CC2)cc(OC)c1OC	-5%
55	COc1cccc(C(c2nnnn2C(C)(C)C)N2CCN(C3CCCCC3)CC2)c1OC (stereo not drawn)	-6%
56	CCOc1ccccc1OCC(=O)Nc1cc(S(=O)(=O)N2CCCCC2)ccc1N1CCN(CC)CC1	u
57	CC1Cc2ccccc2N1C(=O)CSc1nnc(NC(=O)Cc2cccs2)s1 (stereo not drawn)	9%
58	Nc1ccc(-c2nnn(CC(=O)N3CCCCC3)n2)cc1	5%
59	COc1ccc(Cl)cc1N=Nc1ncc[nH]1	1%&4%
60	CN(C(=O)C1CCN(S(=O)(=O)c2ccccc2)CC1)c1c(N)n(Cc2ccccc2)c(=O)[nH]c1=O	-7%
61	CCOc1cc(S(=O)(=O)Nc2ncn[nH]2)ccc1Br	0%
62	O=C(NC1CCCC1)c1ccc2nc[nH]c2c1	10%
63	COc1cccc(C(=O)N[C@@H](C)C(=O)N2CCC3(CC2)NCCc2[nH]cnc23)c1	-22%
64	Cc1cc(NC(=O)COC(=O)c2cc([N+](=O)[O-])ccc2N2CCOCC2)ccc1Br	0%

2 compounds picked at random from the list so far:
No.	canonical_smiles	VDR inh
61	CCOc1cc(S(=O)(=O)Nc2ncn[nH]2)ccc1Br	0%
64	Cc1cc(NC(=O)COC(=O)c2cc([N+](=O)[O-])ccc2N2CCOCC2)ccc1Br	0%

Other compounds follow:
No.	canonical_smiles	VDR inh
65	CC(NC(=O)C(c1ccccc1)c1ccccc1)C(=O)O (stereo not drawn)	7%
66	Cc1c(C(C)NC(=O)Nc2ccc(F)cc2F)cnn1C (stereo not drawn)	5%
67	CCC(C(=O)NCc1ccc(F)cc1)N(CCc1ccccc1)C(=O)c1snc(C(N)=O)c1N (stereo not drawn)	3%
68	CCN(CC)S(=O)(=O)c1cc(NC(=O)CCc2c(C)noc2C)ccc1C	-1%
69	COc1ccccc1N(C)S(=O)(=O)c1ccc(C(=O)N(C)Cc2ccc(OC(F)F)cc2)cc1	-10%
70	COc1ccc(NC(=O)C(C)Sc2cc(-c3ccccc3)nc(C)n2)cc1Cl (stereo not drawn)	-1%
71	O=[N+]([O-])c1sccc1CS(=O)(=O)c1ccccc1	-5%
72	CC(=O)Nc1ccc(Oc2sc(C(=O)c3ccccc3)c(N)c2C#N)cc1	3%
73	NC(=O)CN(c1ccccc1)C1SC(=O)N(Cc2ccccc2)C1=O (stereo not drawn)	2%
74	Cc1csc(=N)n1CC(=O)N1CCc2ccccc21	4%
75	Cc1ccc(NC(=O)C(C)N2C(=O)c3ccccc3C2=O)cc1 (stereo not drawn)	2%
76	CC(=NNC(=O)C(C)SC(C)C(=O)NN=C(C)c1cccnc1)c1cccnc1 (stereo not drawn)	-12%
77	CCCn1c(SCC(=O)Nc2cc(Cl)ccc2OC)nc(O)cc1=O	-15%
78	CCc1nn(-c2ccccc2)c(N)c1C#N	-10%
79	CC(=O)Oc1cc2c(C(=O)NCCCN3CCOCC3)c(C)oc2c2ccccc12	-5%
80	COc1ccc(CNC(=O)c2ccc(NS(=O)(=O)c3ccc4[nH]c(=O)[nH]c4c3)cc2)cc1OC	7%
81	COC(=O)c1ccccc1NC(=O)Cn1nnc2sc(-c3ccccc3)cc2c1=O	4%
82	O=C(Nc1cc(Cl)ccc1-n1cncn1)c1cc(F)cc(F)c1	u
83	Cc1ccc(C(=O)N/C(=C\c2cccnc2)C(=O)N2CCCC2)cc1	7%
84	CNc1nc(=S)[nH]c2ccccc12	-20%
85	COc1cccc(Nc2ncnc3sc(C)cc23)c1	19%
86	CC(C)OC(=O)c1c(-c2ccccc2)c(-c2ccccc2)nn(C)c1=O	-1%
87	Cc1cccc(C(c2sc3nc(-c4ccco4)nn3c2O)N2CCN(c3ccccc3)CC2)c1 (stereo not drawn)	-12%
88	C#CCN(C(=O)Nc1ccccc1)c1ccccc1	4%

In another format: results already given
62: O=C(NC1CCCC1)c1ccc2nc[nH]c2c1
  VDR inh: 10%
55: COc1cccc(C(c2nnnn2C(C)(C)C)N2CCN(C3CCCCC3)CC2)c1OC (stereo not drawn)
  VDR inh: -6%
68: CCN(CC)S(=O)(=O)c1cc(NC(=O)CCc2c(C)noc2C)ccc1C
  VDR inh: -1%
44: COc1cc(Cc2nccc3cc(OC)c(OC)cc23)c(S(=O)(=O)O)cc1OC
  VDR inh: -5%

Next section.
No.	canonical_smiles	VDR inh
89	Nc1ncc(Br)cc1Br	-15%
90	COc1cccc(C(=O)N2CCc3c([nH]c4ccccc34)C2c2ccc(SC)cc2)c1 (stereo not drawn)	7%
91	CC12CCC(C(=O)CC1=O)C2(C)C (stereo not drawn)	-3%
92	N#Cc1c(Nc2ccccc2Cl)s[nH]c1=O	u
93	N=c1ccn(Cc2cccc(F)c2)cc1	-2%
94	O=C(COc1ccccc1)Nc1ncccn1	10%
95	O=[N+]([O-])c1ccc(Nc2ccc3ccccc3c2)nc1	15%
96	CCc1cccc(Nc2cc(C)nc3ncnn23)c1	-28%
97	Oc1ccccc1-c1nc2ccccc2nc1-c1ccccc1	-4%
98	O=C(O)CCC(=O)Nc1ccc(S(=O)(=O)Nc2nccs2)cc1	-12%&11%
99	CC1CCN(CCCNC(=O)C2CCN(S(=O)(=O)N3CCC4(CC3)OCCO4)CC2)CC1	-11%
100	CC(/C=C/C=C/c1ccccc1)=N/NC(=O)c1ccc2c(c1)OCCO2	7%
101	CNCCOc1ccccc1OC(C)C	9%
102	COc1cccc(CNC(=O)c2ccc(C)c(S(=O)(=O)N3CCCCC3)c2)c1	-21%
103	O=C(CSc1ccccc1C(=O)O)c1ccccc1	-3%
104	CN(C(=O)COC(=O)C1CCN(S(=O)(=O)c2c(Cl)cccc2Cl)CC1)C1CCS(=O)(=O)C1 (stereo not drawn)	-19%
105	CCN(CC)S(=O)(=O)c1ccc2c(c1)N(CC(=O)Nc1c(C)cccc1C)C(=O)C1CCCN21 (stereo not drawn)	-1%
106	O=C(Nc1ccccc1)Nc1ccccc1C(=O)NCC1CC1	u
107	CCOc1ccc(CNC(=O)C2Cc3cc(S(=O)(=O)N4CCCCCC4)ccc3N2C(C)=O)cc1 (stereo not drawn)	13%
108	COc1ccc(CNC(=O)c2ccc3c(c2)NC(=O)C(C)S3)cc1 (stereo not drawn)	u
109	Cc1cc(S(=O)(=O)N2CCN(Cc3noc(CCC(=O)N4CCCCC4)n3)CC2)ccc1F	3%
110	Brc1cc(Cc2nnc(-c3ccccc3)o2)c(Br)s1	-5%
111	O=C(c1ccccc1)c1ccc(C(=O)O)c(C(=O)O)c1	-2%
112	CC[C@H](C)[C@H](NC(N)=O)C(=O)Nc1ccc(S(=O)(=O)NC(C)C)cc1	-3%
113	O=C(NN=C1CCCC1)c1ccccc1O	-10%
114	Cn1nnnc1SCC(=O)NCc1cccs1	18%
115	CCOC(=O)c1c(NC(=O)COC(=O)CCNS(=O)(=O)c2ccccc2)sc(C(=O)NC)c1C	9%
116	CN(C)c1nc(OCc2ccccc2)c2ncc(=O)[nH]c2n1	-29%
117	N#Cc1cn(CC(=O)N2CCc3ccccc3C2)c2ccccc12	-14%
118	CCC(COC)NC(=O)c1ccc(OC)c(OC2CCN(C(C)=O)CC2)c1 (stereo not drawn)	-4%
119	CC1(c2ccc(Cl)cc2)NC(=O)N(CC(=O)NCc2cccs2)C1=O (stereo not drawn)	-6%
120	CCOC(=O)c1cccc(NC(=O)/C(=C\c2ccccc2)NC(=O)c2ccccc2Cl)c1	-19%
121	CCn1cc(C(=O)NCc2ccco2)c(=O)c2cc(S(=O)(=O)N3CC(C)CC(C)C3)ccc21 (stereo not drawn)	4%
122	COc1cccc(Cn2nc3c4cc(F)ccc4n(Cc4ccc(F)cc4)cc-3c2=O)c1	-9%
